HSD17B inh: HSD17B dehydrogenase inhibition; recombinant HSD17B10, NADH fluorescence kinetic; many of its hits are not listed in these tables; Potency, µM (highest dose often 57.1 µM), without a hit: top-dose activity change, negative = inhibition, actives largely listed as inhibitors; hit rate 7.6% among 75,000; AID 893; active means well fitted inhibition curve with a large enough effect; inconclusive means small, poorly fitted or top-dose-only effect; inactive means no such curve, though single readings can be large or run the other way;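 further: the protocol describes HADH2 (HSD17B10) and not the HSD17B4 of the title; nearly all actives have a fitted effect of over 70% in size; most hits overshoot -100% by far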
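Activity followed as NADH fluorescence increase (ex 360, em 450 nm) every 30 seconds for 4 min, using final 90 uM beta-hydroxybutyryl CoA and 1 mM NAD+. Recombinant His-tagged enzyme, 20 nM, pH 9.0 Tris buffer, 15 min compound preincubation.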
* hit, by the source's call; i = inactive; ? = inconclusive; [ ] = remark or other dose. On the % scale 0 is the no-effect control and ±100 the full control effect; potency means the concentration at half of the fitted maximal effect. The list is partial, so the mix of outcomes need not match the whole.

SMILES | HSD17B inh
Cc1cccc(OCC(=O)N2CCN(C(=O)CCC3CCCC3)CC2)c1 | -18.7%
Cn1cccc1Cc1nnc(SCC(=O)Nc2ccccc2)n1-c1ccc(F)cc1 | 9.0%
CN1CCN(c2ncc3nc(CCc4ccccc4)c(=O)n(CCc4ccccc4)c3n2)CC1 | ?
CC(C)NC(=O)N1CCC2(CC1)CCN(C(=O)c1cccc(F)c1)CC2 | 2.9%
CCN(CCNC(=O)CCCn1nc(C)n2c(cc3sccc32)c1=O)c1ccccc1 | -3.5%
CN(c1ccc(C(=O)NC2CC2)cc1)S(=O)(=O)c1ccccc1 | 8.7%
O=C(Cc1ccccc1)Nc1ccc2oc(-c3ccncc3)nc2c1 | 25.1µM*
CC(=O)c1cccc(NC(=O)NC(C)c2ccncc2)c1 (stereo not drawn) | -0.3%
CCOC(=O)CNC(=O)CSc1nc(N(C)C)nc(N2CCOCC2)n1 | 15.4%
O=C(Cn1nnc2ccccc2c1=O)Nc1cc(C(F)(F)F)ccc1N1CCOCC1 | 10.9%
CC1(C)CC(=O)C(C=NC2CC(C)(C)NC(C)(C)C2)=C(O)C1 | 3.6%
c1ccc(-n2ncc3c2ncn2nc(-c4ccco4)nc32)cc1 | 12.6µM*
Cc1ccc(C(C(=O)NC2CCCCC2)N2CCCC2)cc1 (stereo not drawn) | 1.2%
CC(=O)NC(Cc1ccc(F)cc1)C(=O)N1CCN(C(=O)NCc2ccccc2)CC1 (stereo not drawn) | 2.2%
ON=Cc1cccn1-c1ccccc1 | 3.4%
CCOc1cc(C(=O)NCC2CCCO2)cc(OCC)c1OCC (stereo not drawn) | 5.4%
CC(C)OCCCNc1ncc2c(n1)CC(c1ccc(N(C)C)cc1)CC2=O (stereo not drawn) | 0.8%
OC1(c2ccc(F)cc2)CCN(Cc2ccccc2)C1 (stereo not drawn) | 7.3%
Cc1nn2c(=O)c(NC(=O)c3ccc(F)cc3)cnc2s1 | 4.6%
COC(=O)N1CCN(c2ccc(OC)cc2)CC1 | 4.4%
O=C1NC2(CCCCC2)N=C1c1ccc(F)cc1 | 5.3%
O=C(NCC1CCCO1)C1CC(=O)N(c2ccc(F)c(Cl)c2)C1 (stereo not drawn) | 6.0%
CCN(c1ccccc1)S(=O)(=O)c1cccc(C(=O)O)c1 | -0.6%
COc1ccc(S(=O)(=O)NC2CCCC2)cc1Br | -8.4%
NC(=O)COC(=O)c1cc(S(=O)(=O)N2CCOCC2)ccc1N1CCCCC1 | -9.3%
SMILES | HSD17B inh
CCOC(=O)/C(C(N)=NCc1ccco1)=C(/O)c1ccccc1 | -6.0%
O=C(O)/C=C/c1ccc(O)c(O)c1 | ?
CCN1CCN(Cc2c(C)[nH]c3ccc(OC)cc3c2=O)CC1 | ?
COc1ccc(C(N)=O)cc1N | 2.5%
CC1=C(C(=O)OCc2ccccc2)C(c2ccccc2-c2ccccc2)NC(=O)N1CCCCCC(=O)O (stereo not drawn) | ?
Nc1c(C(=O)CCC(=O)O)oc2ccc(Cl)cc12 | ?
COC(=O)c1cccc(NC(=O)Cn2cnc3c2c(=O)n(C)c(=O)n3C)c1 | 9.3%
COc1ccccc1-c1cc(C(=O)Nc2c(F)cc(F)cc2Br)no1 | -5.6%
Cn1c(=O)c2c(nc(SCc3cc4c(cc3Cl)OCO4)n2C)n(C)c1=O | 4.3%
O=C(/C=C/Nc1ccc(F)c(Cl)c1)c1ccco1 | 20µM*
COc1ccc2c(c1)C=CC1(O2)N(CCO)c2ccccc2C1(C)C (stereo not drawn) | -5.1%
CCCS(=O)(=O)c1cn2cccc(N)c2c1S(=O)(=O)CCC | ?
Cn1c(=O)c2[nH]c(N3CCOCC3)nc2n(-c2ccccc2)c1=O | 3.8%
Nc1ccc(-c2nc3ccc(-c4nc5ccccc5o4)cc3[nH]2)cc1 | i
COc1ccccc1OCc1nnc(SCC(=O)c2cc(Cl)ccc2OC)o1 | -7.0%
CCC(=O)Nc1ccc(Nc2ccccc2)cc1 | -14.1%
Cc1nccn1CCc1nc(N)nc(N)n1 | 11.3%
O=C1CC[C@](CCc2nc3ccccc3[nH]2)(c2ccccc2)C(=O)N1 | -3.5%[11.4 µM]
Cc1ccc2c(c1)c1c(n2CC(O)CNC(CO)(CO)CO)CCCC1 (stereo not drawn) | ?
Cc1nnc(SCc2cc(=O)[nH]c(Nc3nc(C)c4ccccc4n3)n2)s1 | 5.2%
CC(=O)NC12CC3CC(C)(C1)CC(NC(C)=O)(C3)C2 | 3.9%
COc1ccccc1-n1cc(C(=O)NCC(=O)N2CCN(c3ccccn3)CC2)c2ccccc2c1=O | ?
O=C(CN1CCOCC1)Nc1ccc(Oc2ccc(NC(=O)CN3CCOCC3)cc2)cc1 | 3.5%
CC(=O)N1CCC2(CCCN(C(=O)Nc3cccc(C#N)c3)C2)CC1 | 1.4%
Cc1cc(CNC(=O)[C@H](C)[C@@H]2C[C@@]2(C)[C@@H](NC(=O)OCc2ccccc2)c2ccccc2)nn1C | 8.9%

A draw from above in order of molecular weight, smallest number first.
SMILES | HSD17B inh
O=C(O)/C=C/c1ccc(O)c(O)c1 | ?
COC(=O)c1cccc(NC(=O)Cn2cnc3c2c(=O)n(C)c(=O)n3C)c1 | 9.3%
Cc1cc(CNC(=O)[C@H](C)[C@@H]2C[C@@]2(C)[C@@H](NC(=O)OCc2ccccc2)c2ccccc2)nn1C | 8.9%

The results go on:
SMILES | HSD17B inh
N[C@](CC1c2ccccc2Oc2ccccc21)(C(=O)O)[C@@H]1C[C@@H]1C(=O)O | 2.8%
Nc1nc(CN2CCCCC2)cs1 | 5.7%
COc1ccc(NC(=O)C2CC(=O)NC(Nc3cccc(C)c3)=N2)cc1 (stereo not drawn) | 10.6%
COc1ccc(S(=O)(=O)N(C)CC(=O)N2CCOCC2)cc1 | 7.5%
CCOc1cc(C)c(Cl)cc1S(=O)(=O)n1cnc2ccccc21 | -6.0%
O=C(O)CCC(=O)N(Cc1ccco1)c1nc(-c2ccccc2)cs1 | 1.5%
O=NN(Cc1ccc(Cl)cc1)[C@@H](C(=O)O)c1ccccc1 | 2.1%[11.4 µM]
Cc1ccnc(NC(=O)C2CCN(S(=O)(=O)c3cccc4nsnc34)CC2)c1 | -2.6%
O=C(O)C1CCCCC1C(=O)Nc1ccccc1F (stereo not drawn) | 9.8%
CCN1C(=O)/C(=C2/C=CC=CN2C)OC1=S | -3.0%
Cc1sc2ncn3ncnc3c2c1C | 8.8%
Cc1cc(N)c2cc(OCCOc3ccc4nc(C)cc(N)c4c3)ccc2n1 | ?
O=C(NCc1ccco1)C1CC(=O)N(c2ccc(F)cc2)C1 (stereo not drawn) | 3.5%
Cc1ccc(CC(CC(=O)O)C(=O)NC2CCCCC2)cc1 (stereo not drawn) | 3.9%
COc1ccc2nc3oc(C(=O)N4CCCCC4)cc3cc2c1 | 25.1µM*
Cc1ncoc1C(=O)Nc1ccc(Oc2ccccc2)cc1 | -3.9%
O=S(=O)(c1ccc(F)c(Cl)c1)N1CCCC1 | 0.8%
O=S(=O)(N1CCCCC1)N1CCN(S(=O)(=O)N2CCCCC2)CC1 | 16.2%
O=C(c1n[nH]c(=O)c2ccccc12)N1CCN(C2c3ccccc3-c3ccccc32)CC1 | -0.9%
COc1ccc(C2C(=O)N(C3CCCCC3)CC(=O)N2C2CCCC2)cc1 (stereo not drawn) | -0.8%
O=C(OCC(=O)N1CCN(C(=O)c2ccco2)CC1)c1cn(-c2ccccc2)nc1-c1ccccc1 | 0.2%
N#CCSc1nc2[nH]ncc2c(=O)n1-c1ccccc1Br | 1.6%
CCOc1ccc2nc(NC(=O)c3ccoc3C)sc2c1 | 20µM*
Cc1ccc(C(=O)Nc2ccc(S(=O)(=O)N3CCc4ccccc4C3)cc2)o1 | ?
CCN(CC)c1nc2n(c(=O)n1)CCN2CC | -6.4%
SMILES | HSD17B inh
O=C(NC1CCCCC1)C1CCN(c2nccs2)CC1 | 10.7%
O=C(c1ccccc1)c1nnc(-c2ccncc2)o1 | 1.0%
COc1ccc(CCNC(=O)CSc2nc(N)c3c(C)c(C)oc3n2)cc1OC | 4.7%
CCOC(=O)c1c(NC(=O)c2nn(CC)cc2Br)c(C#N)cn1-c1ccccc1 | ?
COc1ccc2[nH]c(=O)c(CN(C(=O)c3ccncc3)C(C)(C)C)cc2c1 | ?
Fc1ccc(-c2nnc(NC3=NCCCCC3)o2)cc1 | 7.6%
O=c1ccc(S(=O)(=O)N2CCC(Cc3ccccc3)CC2)c[nH]1 | -12.1%
COC(=O)c1cccc(NC(=O)CSc2nnnn2C)c1 | -2.5%
CN1CCN(C(=O)c2cccc(COc3cc(Cl)ccc3Cl)c2)CC1 | 4.7%
COc1ccc(Oc2ncc3nc(C)c(=O)n(-c4ccccc4)c3n2)cc1 | 4.8%
CN(Cc1cccs1)C(=O)COc1cccc(-n2cnnn2)c1 | -3.1%
O=C(NCc1ccccc1F)C1CCCN(C(=O)NC2CCCCC2)C1 (stereo not drawn) | 1.7%
Cc1cc(NC(=O)CCc2ccc(C)o2)no1 | 5.8%
O=c1[nH]c(=O)n([C@H]2C[C@H](O)[C@@H](CO)O2)cc1Br | 6.5%
O=C(O)CC[C@@H](NC(=O)c1ccccc1C(=O)O)C(=O)O | 7.1%
Cc1cc(C)cc(N2CCCn3c2nc2c3c(=O)n(CC(=O)OCc3ccccc3)c(=O)n2C)c1 | 2.0%
Cc1ccc(C2Nc3ccccc3C(=O)N2Cc2ccco2)cc1 (stereo not drawn) | 31.6µM*
C=CCc1cccc2cc(C(=O)N(C)C)c(=O)oc12 | ?
COc1ccccc1Nc1nc(N)nc(CSc2nncn2C)n1 | 2.6%
O=C(c1ccccc1)c1cccc(NC(=O)c2ccco2)c1 | -2.6%
CCOC(=O)c1sc(NC(=O)CCN2CCOCC2)c(C(=O)OCC)c1C | -5.9%
CS(=O)(=O)Nn1cnc2ccccc2c1=O | 5.0%
COc1ccc2nc(C)cc(N3CCOCC3)c2c1 | -3.7%
COc1ccc2ccc(Oc3ncccn3)cc2c1 | 1.7%
O=C(NCc1ccc(F)cc1)c1c(O)c2cccc3c2n(c1=O)CCC3 | 7.5%

27 of the compounds above, in CSV form.
mol,HSD17B inh
O=C(OCC(=O)N1CCN(C(=O)c2ccco2)CC1)c1cn(-c2ccccc2)nc1-c1ccccc1,0.2%
N#CCSc1nc2[nH]ncc2c(=O)n1-c1ccccc1Br,1.6%
CCOc1ccc2nc(NC(=O)c3ccoc3C)sc2c1,20µM*
Cc1ccc(C(=O)Nc2ccc(S(=O)(=O)N3CCc4ccccc4C3)cc2)o1,?
CCN(CC)c1nc2n(c(=O)n1)CCN2CC,-6.4%
O=C(NC1CCCCC1)C1CCN(c2nccs2)CC1,10.7%
O=C(c1ccccc1)c1nnc(-c2ccncc2)o1,1.0%
COc1ccc(CCNC(=O)CSc2nc(N)c3c(C)c(C)oc3n2)cc1OC,4.7%
CCOC(=O)c1c(NC(=O)c2nn(CC)cc2Br)c(C#N)cn1-c1ccccc1,?
COc1ccc2[nH]c(=O)c(CN(C(=O)c3ccncc3)C(C)(C)C)cc2c1,?
Fc1ccc(-c2nnc(NC3=NCCCCC3)o2)cc1,7.6%
O=c1ccc(S(=O)(=O)N2CCC(Cc3ccccc3)CC2)c[nH]1,-12.1%
COC(=O)c1cccc(NC(=O)CSc2nnnn2C)c1,-2.5%
CN1CCN(C(=O)c2cccc(COc3cc(Cl)ccc3Cl)c2)CC1,4.7%
COc1ccc(Oc2ncc3nc(C)c(=O)n(-c4ccccc4)c3n2)cc1,4.8%
CN(Cc1cccs1)C(=O)COc1cccc(-n2cnnn2)c1,-3.1%
O=C(NCc1ccccc1F)C1CCCN(C(=O)NC2CCCCC2)C1 (stereo not drawn),1.7%
Cc1cc(NC(=O)CCc2ccc(C)o2)no1,5.8%
O=c1[nH]c(=O)n([C@H]2C[C@H](O)[C@@H](CO)O2)cc1Br,6.5%
O=C(O)CC[C@@H](NC(=O)c1ccccc1C(=O)O)C(=O)O,7.1%
Cc1cc(C)cc(N2CCCn3c2nc2c3c(=O)n(CC(=O)OCc3ccccc3)c(=O)n2C)c1,2.0%
Cc1ccc(C2Nc3ccccc3C(=O)N2Cc2ccco2)cc1 (stereo not drawn),31.6µM*
C=CCc1cccc2cc(C(=O)N(C)C)c(=O)oc12,?
COc1ccccc1Nc1nc(N)nc(CSc2nncn2C)n1,2.6%
O=C(c1ccccc1)c1cccc(NC(=O)c2ccco2)c1,-2.6%
CCOC(=O)c1sc(NC(=O)CCN2CCOCC2)c(C(=O)OCC)c1C,-5.9%
CS(=O)(=O)Nn1cnc2ccccc2c1=O,5.0%

The list continues:
SMILES | HSD17B inh
CC1CCCCN1S(=O)(=O)c1cccc2cccnc12 (stereo not drawn) | 15.3%
CN1CCN(c2ccnc(-c3cccnc3)n2)CC1 | ?
N[C@H](CCC(=O)NCC(=O)O)C(=O)O | 13.7%
CCOC(=O)c1cnc(-n2nc(C)cc2C)nc1NC | 25.1µM*
CCOCCCNC(=O)C(NC(=O)CNC(C)=O)c1ccc(Cl)cc1 (stereo not drawn) | 2.0%
CC(C)NC(=O)COC(=O)c1ccc(O)cc1 | 8.8%
CCCC(=O)OCCn1c(Br)nc2c1c(=O)[nH]c(=O)n2C | 2.1%
CS(=O)(=O)N(Cc1nc2sc3c(c2c(=O)[nH]1)CCCC3)C1CCCCC1 | -22.1%

Screening data from PubChem.
